Screening data (PubChem)
CSC inhib: cancer stem cell viability inhibitors, primary screen, luminescence; cancer stem cell-like cells viability; inhibition, % at 7.5 µM; actives 1.1% (n = 300,000);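 active = mean at 75% or more and at least half the replicates too; tested in HMLE shEcad cells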;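 note: 0% = median of negative and 100% = median of positive control wells; the first replicate is given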
Rce1 inh: yeast Rce1p protease inhibitors, primary screen, biochemical, fluorescence, cell-free homogeneous | CAAX prenyl protease 2 (Saccharomyces cerevisiae (strain ATCC 204508 / S288c)), Q03530 | yeast membranes, quenched prenylated peptide cleavage fluorescence | calls only | actives 0.27% (n = 290,000);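 active = fall in fluorescence gain of 50% or more versus controls, with final raw signal at or below 3038400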;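 note: plate controls were neutral control wells for no effect and wells lacking membranes for full effect; tested at 10 µM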
Target sequence (Q03530 whole entry, looked up): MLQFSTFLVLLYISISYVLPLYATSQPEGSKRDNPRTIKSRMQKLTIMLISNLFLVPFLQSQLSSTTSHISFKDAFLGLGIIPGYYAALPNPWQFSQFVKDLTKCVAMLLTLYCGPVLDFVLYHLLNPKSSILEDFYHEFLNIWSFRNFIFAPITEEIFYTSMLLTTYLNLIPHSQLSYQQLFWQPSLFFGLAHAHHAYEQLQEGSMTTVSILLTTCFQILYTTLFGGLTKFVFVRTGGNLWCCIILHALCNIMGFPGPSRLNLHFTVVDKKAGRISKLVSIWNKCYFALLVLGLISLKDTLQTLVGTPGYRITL
PABP FP inh: PABP poly(A) RNA binding inhibitors, primary screen, biochemical, fluorescence polarization, uHTS | Polyadenylate-binding protein 1 (Homo sapiens), P11940 | inhibition, % at 35 µM | actives 1% (n = 290,000);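 active = 50% or more with normal probe brightness, or confirmed in later tests; about a fifth of its hits are not listed in these tables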;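 note: calls also rest on retests at 20 µM and on dose response follow-up; controls were probe without protein and protein plus probe with vehicle; some compounds called inactive have numbers as strong as hits; many hits fall short of the cut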
MT1-MMP act inh: blockers of MT1-MMP proenzyme processing, primary screen, HT1080 RFP-PRO-GFP cells, GFP/RFP fluorescence; GFP/RFP ratio fluorescence, overnight; percent of plate control window, DMSO zero; GFP/RFP ratio change, % at 20 µM; Matrix metalloproteinase-14 (Homo sapiens), P50281; actives 0.061% (n = 360,000);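 active = GFP/RFP ratio change of at least 30% with cell ATP level not reduced by more than half and red fluorescence within 50% of control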; note: strong numbers were not always called active
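Assay system – RFP-PRO-GFP reporter HT1080 cells · Compound dosing – single dose of 20 µM compound, 1% DMSO final · Incubation – overnight compound exposure at 37 °C · Measure – GFP/RFP fluorescence ratio · Benchmarks – DMSO wells and RFP-L50D-GFP cells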
Env fusion inh: inhibitors of HIV-1 Env-driven cell-cell fusion, primary screen, HeLa-JRFL effector, CEM21 target cells, luciferase | inhibition, % at 12.3 µM | actives 1.1% (n = 360,000) | AID 651610, 2012;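 active = mean replicate inhibition score of at least 50 and every replicate individually at or above 50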;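 note: 0% = plate neutral controls and 100% = maraviroc near 300 nM; one replicate is shown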
Yeast UUG start: modulators of yeast start codon fidelity, primary screen, whole organism, S. cerevisiae, single point, plate reader | activity score, % at 18.7 µM | actives 0.13% (n = 350,000) | S. cerevisiae UUG-firefly luciferase reporter, luminescence/redox ratio;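 active = replicate mean at a twofold rise or more, about +100% in these data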;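 note: firefly luciferase made from a UUG start codon reports start codon fidelity; reporter light over untreated wells divided by growth signal over untreated wells; some hits fall short of that in this replicate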
eIF4H inh: human eIF4H binding inhibitors, primary screen, translation initiation inhibitor project, biochemical, uHTS, fluorescence polarization | AID 2012, 2009 | actives 0.94% (n = 290,000) | eIF4H fluorescence polarization binding assay | inhibition, % at 35 µM;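 active = 50% or more with normal probe brightness, or confirmed in later tests; about a fifth of its hits are not listed in these tables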;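 note: calls also rest on retests at 20 µM and on dose response follow-up; 0% = protein and probe with vehicle and 100% = probe without protein; strong numbers were not always called active; many hits fall short of the cut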
MT1-MMP act inh RFP: recorded beside MT1-MMP act inh, whose call it bears; RFP signal change, %; measured here: RFP expression control read;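 0 = vehicle wells; hits needed this value within 50% of zero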
An asterisk follows results filed as active. An excerpt, so the mix of outcomes need not match the whole.

Screening O=C(CSc1nccn1-c1ccc(Cl)cc1)Nc1ccc2c(c1)OCO2 returned CSC inhib 0.5, Rce1 inh inactive, PABP FP inh 4.4, MT1-MMP act inh 0.3, Yeast UUG start -1.9, eIF4H inh 6.2 and MT1-MMP act inh RFP -11.5.
CN1C(=O)/C(=C/c2ccc(OCc3ccc(F)cc3)cc2)NC1=S was read as Rce1 inh inactive, PABP FP inh 3.5, MT1-MMP act inh 4.9, Env fusion inh 0.7, Yeast UUG start -9.1, eIF4H inh -4.6 and MT1-MMP act inh RFP -9.3.
`O=C(NCCCO)c1nnc(Cc2c(F)cccc2Cl)o1` gave CSC inhib -5.5, Rce1 inh inactive, PABP FP inh 2.6, Env fusion inh -7.4, Yeast UUG start -3.0 and eIF4H inh -2.0.
Screening Cn1c(CNC(=O)c2ccc(Cl)cc2)nnc1SCC(=O)NC1=NCCS1 returned CSC inhib 7.1, PABP FP inh 12.6, MT1-MMP act inh 1.1, Env fusion inh 2.2, Yeast UUG start -2.0, eIF4H inh 4.5 and MT1-MMP act inh RFP 0.7.
For O/N=C1/C2C3C(Br)C4C5CC(C1C53)C24 (stereo not given) the results were CSC inhib 3.0, Rce1 inh inactive, PABP FP inh 2.6, MT1-MMP act inh 1.4, Env fusion inh 3.4, eIF4H inh 6.4 and MT1-MMP act inh RFP 6.5.
Screening COC(=O)CSc1nnc(-c2cccnc2)n1-c1cc(OC)cc(OC)c1 returned CSC inhib -5.3, Rce1 inh inactive, PABP FP inh -5.3, MT1-MMP act inh 1.3, Env fusion inh -28.0, Yeast UUG start -13.5, eIF4H inh -9.5 and MT1-MMP act inh RFP -0.5.
For CC(=O)NS(=O)(=O)c1ccc(NC(=O)c2cc(-c3ccc(C)cc3)nc3ccccc23)cc1 the results were CSC inhib 0.2, Rce1 inh inactive, PABP FP inh 3.1, MT1-MMP act inh 10.0, Env fusion inh 9.9, Yeast UUG start -7.0, eIF4H inh 0.6 and MT1-MMP act inh RFP 1.5.
`O=C(CN1C(=O)NC2(CCCC2)C1=O)OCCOc1ccc(F)cc1` gave CSC inhib -16.3, Rce1 inh inactive, MT1-MMP act inh -0.1, Env fusion inh -5.4, Yeast UUG start 1.2 and MT1-MMP act inh RFP 2.9.
Screening COc1ccc(-c2cc(=O)oc3cc(OCC(=O)Nc4ccccn4)ccc23)cc1 returned CSC inhib 18.7, Rce1 inh inactive, PABP FP inh -0.5, MT1-MMP act inh -1.2, Env fusion inh 4.1, Yeast UUG start -9.8, eIF4H inh -2.3 and MT1-MMP act inh RFP -5.8.
`Cc1ccc2nc(SCC(=O)NCc3cccs3)[nH]c2c1` gave CSC inhib 7.0, PABP FP inh -5.7, MT1-MMP act inh 3.6, Env fusion inh -1.1, eIF4H inh 10.3 and MT1-MMP act inh RFP -0.2.
Screening O=C(CCl)N1N=C(c2ccco2)CC1c1cccs1 (stereo not given) returned CSC inhib 55.8, Rce1 inh inactive, PABP FP inh 0.7, MT1-MMP act inh -10.0, Yeast UUG start -4.7, eIF4H inh 9.4 and MT1-MMP act inh RFP -4.5.
`CC(=O)Nc1nonc1-c1nc2ccccc2n1Cc1ccccn1` gave CSC inhib -4.8, Rce1 inh inactive, PABP FP inh 1.2, MT1-MMP act inh 9.5, Env fusion inh -33.8, Yeast UUG start -18.1, eIF4H inh -15.9 and MT1-MMP act inh RFP 3.1.
Cc1ccc(NC(=O)c2sc(Cl)nc2C)c(C)c1 was read as CSC inhib -15.5, Rce1 inh inactive, PABP FP inh -2.9, MT1-MMP act inh 2.6, Env fusion inh -28.9, Yeast UUG start -9.9, eIF4H inh 8.0 and MT1-MMP act inh RFP -0.8.
Screening CCOC(=O)C1CCN(C(=O)CSc2nccc(C)n2)CC1 returned CSC inhib -17.4, Rce1 inh inactive, PABP FP inh -2.4, MT1-MMP act inh -1.5, Env fusion inh -87.6, Yeast UUG start -13.5, eIF4H inh 12.2 and MT1-MMP act inh RFP 3.1.
COc1ccc(C2CC(=O)c3cnc(N)nc3C2)c(OC)c1 (stereo not given) was read as Rce1 inh inactive, PABP FP inh 5.3, MT1-MMP act inh 1.5, Yeast UUG start -17.7, eIF4H inh -4.8 and MT1-MMP act inh RFP 1.4.
`O=C(NCc1ccco1)c1ccc(Cn2c(=O)c3sccc3n(Cc3cccc(F)c3)c2=O)cc1` gave CSC inhib -5.7, Rce1 inh inactive, PABP FP inh -7.7, MT1-MMP act inh -6.4, Env fusion inh 90.2*, Yeast UUG start 0.3, eIF4H inh -4.0 and MT1-MMP act inh RFP -4.9.
Screening O=C(COC(=O)c1n[nH]c2ccccc12)NC(=O)NC1CCCCC1 returned CSC inhib 4.9, Rce1 inh inactive, PABP FP inh 3.4, MT1-MMP act inh 6.5, Env fusion inh -16.3, Yeast UUG start -13.1, eIF4H inh -6.6 and MT1-MMP act inh RFP -2.0.
`Clc1cc(Cl)cc(Nc2ncn[nH]2)c1` gave CSC inhib -0.3, Rce1 inh inactive, PABP FP inh -14.1, MT1-MMP act inh -0.2, Env fusion inh -60.8, Yeast UUG start -10.5, eIF4H inh -5.0 and MT1-MMP act inh RFP 5.1.
O=C(CCNC(=O)c1ccco1)Nc1ccc(Cl)cc1 was read as CSC inhib -5.3, Rce1 inh inactive, PABP FP inh 2.1, MT1-MMP act inh 3.8, Env fusion inh 8.4, eIF4H inh 1.4 and MT1-MMP act inh RFP 5.8.
`O=C1CC(N2CCC(c3nc4ccccc4o3)CC2)C(=O)N1c1ccc(Cl)c(C(F)(F)F)c1` (stereo not given) gave Rce1 inh inactive, PABP FP inh -0.1, MT1-MMP act inh 8.4, Env fusion inh 19.9, Yeast UUG start -5.3, eIF4H inh -5.8 and MT1-MMP act inh RFP 3.4.
Screening O=c1c2ccccc2nc2n1C(CSc1ccc(F)cc1)CS2 (stereo not given) returned CSC inhib 8.5, Rce1 inh inactive, PABP FP inh -7.0, MT1-MMP act inh 1.2, Env fusion inh -2.1, eIF4H inh -3.9 and MT1-MMP act inh RFP 2.2.
Screening CCOC(=O)N1CCN(S(=O)(=O)c2ccc(F)c(C(=O)Nc3cc(C)cc(C)c3)c2)CC1 returned CSC inhib -16.4, Rce1 inh inactive, PABP FP inh -8.0, MT1-MMP act inh 6.2, Env fusion inh 10.9, eIF4H inh -2.7 and MT1-MMP act inh RFP 2.4.
`O=C1CSC(=S)N1c1cccc(O)c1` gave CSC inhib 12.3, Rce1 inh inactive, PABP FP inh 3.0, MT1-MMP act inh 8.5, Env fusion inh 9.3, Yeast UUG start -12.7, eIF4H inh 6.4 and MT1-MMP act inh RFP 7.8.
c1ccc(-c2ccc3c(n2)CCCO3)cc1 was read as Rce1 inh inactive, MT1-MMP act inh -0.8, Env fusion inh -12.1, Yeast UUG start -17.6 and MT1-MMP act inh RFP 2.4.
`Cc1oc(-c2cc(F)cc(F)c2)nc1CN1CCN(C(=O)c2ccco2)CC1` gave CSC inhib 10.2, Rce1 inh inactive, PABP FP inh -7.8, MT1-MMP act inh -2.2, Env fusion inh 5.8, Yeast UUG start -9.5, eIF4H inh -1.9 and MT1-MMP act inh RFP -2.6.
For CC(C)NC(=O)c1ccccc1NC(=O)Cc1ccc(Br)cc1 the results were Rce1 inh inactive, PABP FP inh 0.2, MT1-MMP act inh 0.7, Env fusion inh -9.4, Yeast UUG start -5.9, eIF4H inh 0.7 and MT1-MMP act inh RFP 1.1.
`Cc1ccc[n+](CC(=O)Nc2c(Cl)cc(Cl)cc2Cl)c1` gave CSC inhib -12.5, Rce1 inh inactive, PABP FP inh -2.4, MT1-MMP act inh -1.1, Env fusion inh 6.0, Yeast UUG start -18.4, eIF4H inh -5.3 and MT1-MMP act inh RFP 0.7.
C=C(C)Cc1c(C)c(C#N)c2nc3ccccc3n2c1N1CCCCC1 was read as CSC inhib -0.9, Rce1 inh inactive, PABP FP inh 4.0, MT1-MMP act inh -18.5, Env fusion inh 22.4, eIF4H inh -10.0 and MT1-MMP act inh RFP -12.1.
`O=C1CCC[C@@H]2C[C@@]3(C[C@@H]4CCN1[C@H]24)Nc1cc(Cl)ccc1NC3=NCc1ccccc1` gave MT1-MMP act inh -0.1, Env fusion inh -96.7, Yeast UUG start -6.1 and MT1-MMP act inh RFP 2.0.
`Cc1ccc2cc(CCNS(=O)(=O)c3ccc(Cl)cc3)c(=O)[nH]c2c1C` gave Rce1 inh inactive, PABP FP inh 8.6, MT1-MMP act inh -2.6, Env fusion inh 40.5, Yeast UUG start -13.6, eIF4H inh -1.9 and MT1-MMP act inh RFP -6.2.
Screening CC1(C)CC(C(CCN(Cc2ccccc2)C(=O)c2ccco2)c2ccc(F)cc2)CCO1 (stereo not given) returned CSC inhib 27.9, Rce1 inh inactive, PABP FP inh 3.5, MT1-MMP act inh -11.5, Env fusion inh 2.0, Yeast UUG start 5.7, eIF4H inh -5.0 and MT1-MMP act inh RFP -9.9.
Screening Clc1ccccc1Nc1nc(-c2cccnc2)cs1 returned CSC inhib 23.9, Rce1 inh inactive, PABP FP inh 0.4, MT1-MMP act inh -6.8, Env fusion inh -211.6, Yeast UUG start -9.0, eIF4H inh -13.8 and MT1-MMP act inh RFP -6.0.
`CCOC(=O)c1ccc(-n2c(=S)sc3c(=O)[nH]c(C)nc32)cc1` gave CSC inhib -1.2, Rce1 inh inactive, PABP FP inh 5.0, MT1-MMP act inh -8.1, Yeast UUG start -8.3, eIF4H inh -10.9 and MT1-MMP act inh RFP 1.1.
Screening CCC(=O)N(CCc1ccccc1)Cc1cc2cc3c(cc2[nH]c1=O)OCO3 returned CSC inhib 6.1, Rce1 inh inactive, PABP FP inh -3.3, MT1-MMP act inh -1.1, Env fusion inh 9.9, Yeast UUG start 11.6, eIF4H inh -9.9 and MT1-MMP act inh RFP -4.4.
`Cc1ccc(N(CC(=O)NC2CCCCC2)C(=O)Cn2nnc(-c3ccc(C)o3)n2)cc1` gave CSC inhib -10.6, Rce1 inh inactive, PABP FP inh -1.1, MT1-MMP act inh -1.5, Env fusion inh 3.2, Yeast UUG start 3.3, eIF4H inh -6.0 and MT1-MMP act inh RFP -0.5.
For COc1ccc(-c2oc3ccccc3c(=O)c2OC(C)=O)cc1 the results were CSC inhib 27.3, Rce1 inh inactive, PABP FP inh -2.0, MT1-MMP act inh -14.1, Env fusion inh 10.0, Yeast UUG start -10.0, eIF4H inh 3.0 and MT1-MMP act inh RFP -7.7.
For CCCN1CCN(CC(=O)Nc2nc3ccccc3s2)CC1 the results were Rce1 inh inactive, PABP FP inh -6.9, MT1-MMP act inh -3.0, Env fusion inh -27.5, Yeast UUG start -10.1, eIF4H inh -9.8 and MT1-MMP act inh RFP 2.0.
